# FGF22 binding: binders of human FGF22 protein, primary screen, FGF22 synaptogenesis inhibitor project, biophysical, thermal shift, single point; hit rate 1.5% among 340,000; calls only at 9.99 µM; Fibroblast growth factor 22 (Homo sapiens), Q9HCT0; recombinant FGF22 thermal shift, SYPRO orange fluorescence; percent of sucrose octasulfate shift, DMSO zero;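 active = melting point raised past a set limit in the mean and every replicate; three in four hits are not shown here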
# Target sequence (Q9HCT0 whole entry, looked up): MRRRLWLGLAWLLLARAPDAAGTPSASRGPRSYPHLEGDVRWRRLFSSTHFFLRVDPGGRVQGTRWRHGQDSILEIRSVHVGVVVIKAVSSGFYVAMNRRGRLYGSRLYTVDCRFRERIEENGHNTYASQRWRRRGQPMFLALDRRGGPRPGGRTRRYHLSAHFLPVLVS
# Calls only; i = inactive; + = active, no number. This is a subset (hit frequency here may not be typical).
> C[C@@H]1CN([C@H](C)CO)C(=O)c2cc(-c3ccccc3)cnc2O[C@@H]1CN(C)C(=O)NC1CCCC1
  FGF22 binding = i
> C[C@H](CO)N1C[C@H](C)[C@@H](CN(C)C(=O)Nc2ccc(C(F)(F)F)cc2)OCCCC[C@H](C)Oc2ccc(NS(C)(=O)=O)cc2C1=O
  FGF22 binding = i
> Cc1cccc(-c2ccc([C@H]3[C@@H](CO)N4C(=O)CN(S(=O)(=O)c5cccc(F)c5)C[C@@H]34)cc2)c1
  FGF22 binding = i
> CN1c2ccc(Br)cc2[C@H]2[C@H](CCN2C(=O)c2ccc(F)cc2)[C@H]1CO
  FGF22 binding = i
> CN(C)CC(=O)N1CC2(C1)[C@@H](c1ccccc1)[C@@H](CO)N2C(=O)C1CCCCC1
  FGF22 binding = i
> COc1ccc(S(=O)(=O)Nc2ccc3c(c2)C(=O)N([C@H](C)CO)C[C@H](C)[C@H](CN(C)S(=O)(=O)c2ccc(F)cc2)OCCCC[C@@H](C)O3)cc1
  FGF22 binding = i
> O=C(Nc1ccc(Cl)cc1)N[C@@H]1CC[C@@H](CCn2cc(-c3ccccc3F)nn2)O[C@H]1CO
  FGF22 binding = i
> C[C@H]1CN([C@@H](C)CO)C(=O)Cc2cc(NC(=O)Nc3ccc4c(c3)OCO4)ccc2O[C@@H]1CN(C)Cc1ccc(-c2ccccc2)cc1
  FGF22 binding = i
> CC(=O)N(C)C[C@H]1Oc2cc(-c3cccc(F)c3)ccc2S(=O)(=O)N([C@H](C)CO)C[C@H]1C
  FGF22 binding = i
> C[C@@H]1CN([C@H](C)CO)C(=O)c2cccc(NC(=O)NC3CCCCC3)c2O[C@@H]1CN(C)C(=O)Nc1ccc2c(c1)OCO2
  FGF22 binding = i
> C[C@H](CO)N1C[C@H](C)[C@@H](CN(C)Cc2cccc(F)c2)Oc2cc(C#CC3CC3)ccc2S1(=O)=O
  FGF22 binding = i
> COc1ccc(S(=O)(=O)N(C)C[C@H]2Oc3c(NC(=O)c4cnccn4)cccc3C(=O)N([C@H](C)CO)C[C@@H]2C)cc1
  FGF22 binding = i
> C[C@@H]1CN([C@H](C)CO)C(=O)c2cc(NS(=O)(=O)c3ccc(Cl)cc3)ccc2O[C@@H]1CN(C)Cc1ccc(C(=O)O)cc1
  FGF22 binding = i
> CC(=O)c1ccc(S(=O)(=O)NCC2CCN(C(=O)C(=O)c3cccs3)CC2)cc1
  FGF22 binding = i
> CCCC(=O)Nc1ccc2c(c1)OC[C@H](C)NC[C@H](C)[C@H](OC)CN(C)C2=O
  FGF22 binding = i
> Cc1ccc(S(=O)(=O)N(C)C[C@H]2Oc3c(NC(=O)c4ccc(-c5nccs5)cc4)cccc3C(=O)N([C@@H](C)CO)C[C@H]2C)cc1
  FGF22 binding = i
> CCC(=O)Nc1ccc2c(c1)C(=O)N(C)C[C@H](OC)[C@H](C)CN(Cc1ccccc1F)[C@@H](C)CO2
  FGF22 binding = i
> C[C@@H]1CN([C@@H](C)CO)C(=O)c2cc(C#CC3CCCCC3)cnc2O[C@H]1CN(C)S(C)(=O)=O
  FGF22 binding = i
> CCCN1[C@@H]2Cn3c(ccc(-c4cccnc4)c3=O)[C@H]1[C@@H](C(=O)NC1CCCC1)[C@@H]2CO
  FGF22 binding = i
> COc1ccc(NC(=O)Nc2ccc3c(c2)C(=O)N([C@H](C)CO)C[C@H](C)[C@H](CN(C)Cc2ccc(C(=O)Nc4ccccc4N)cc2)OCCCC[C@@H](C)O3)cc1
  FGF22 binding = i
> CCC(=O)Nc1ccc2c(c1)C(=O)N(C)C[C@@H](OC)[C@@H](C)CN(CCC(F)(F)F)[C@@H](C)CO2
  FGF22 binding = i
> O=S(=O)(N[C@@H]1CC[C@H](CCn2cc(-c3ccccn3)nn2)O[C@@H]1CO)c1cccc(F)c1
  FGF22 binding = i
> CCCNC(=O)Nc1ccc2c(c1)C(=O)N(C)[C@@H]1CC[C@@H](CC(=O)NCC3CCCCC3)O[C@H]1CO2
  FGF22 binding = i
> C[C@@H]1CN([C@H](C)CO)C(=O)c2cc(NC(=O)Cc3ccccc3)ccc2O[C@@H](C)CCCCO[C@H]1CN(C)S(=O)(=O)c1ccccc1
  FGF22 binding = i
> C[C@H](CO)N1C[C@H](C)[C@@H](CN(C)C(=O)C2CCCCC2)OCCCC[C@H](C)Oc2ccc(NC(=O)C3CCCCC3)cc2C1=O
  FGF22 binding = i

> C[C@@H]1CN([C@H](C)CO)C(=O)Cc2cc(NS(=O)(=O)c3ccc(Cl)cc3)ccc2O[C@@H]1CN(C)C(=O)NC1CCCCC1
  FGF22 binding = i
> CC(C)NC(=O)Nc1ccc2c(c1)CC(=O)N([C@H](C)CO)C[C@H](C)[C@H](CN(C)C(=O)Nc1ccccc1)O2
  FGF22 binding = i
> O=C(/C=C(\Nc1cccc(F)c1)c1ccccc1)c1ccccc1
  FGF22 binding = i
> COc1cccc(S(=O)(=O)Nc2ccc3c(c2)[C@H]2C[C@H](CC(=O)O)O[C@@H](CO)[C@H]2O3)c1
  FGF22 binding = i
> Cc1cccc(-c2ccc([C@H]3[C@@H](CO)N4CCCCN(C(=O)c5cccnc5)C[C@@H]34)cc2)c1
  FGF22 binding = i
> C[C@@H]1CN([C@H](C)CO)C(=O)c2cc(NC(=O)Nc3ccc(F)cc3)ccc2O[C@@H](C)CCCCO[C@H]1CN(C)C
  FGF22 binding = i
> COc1cccc(C(=O)Nc2ccc3c(c2)C(=O)N(C)[C@H]2CC[C@H](CC(=O)N[C@H](C)c4ccccc4)O[C@H]2CO3)c1
  FGF22 binding = i
> C[C@@H]1CN([C@H](C)CO)C(=O)c2cc(/C=C/c3ccccc3)cnc2O[C@@H]1CN(C)C(=O)C1CC1
  FGF22 binding = i
> C[C@@H]1CN([C@@H](C)CO)C(=O)c2cc(-c3ccccc3F)cnc2O[C@@H]1CN(C)C(=O)C1CCCCC1
  FGF22 binding = i
> C[C@@H](NC(=O)C[C@H]1C=C[C@@H](NC(=O)c2cccnc2)[C@@H](CO)O1)c1ccccc1
  FGF22 binding = i
> COc1ccccc1NC(=O)N1CC(=O)N2[C@H](CO)[C@H](c3ccc(C#CC(C)C)cc3)[C@@H]2C1
  FGF22 binding = i
> C[C@@H]1CN([C@@H](C)CO)C(=O)c2cccc(NS(C)(=O)=O)c2O[C@@H]1CN(C)C
  FGF22 binding = i
> O=C(N[C@H]1CC[C@H](CCNC(=O)C2CCC2)O[C@H]1CO)c1ccncc1
  FGF22 binding = i
> CC(=O)N(C)C[C@@H]1Oc2cc(C#CCC3CCCC3)ccc2S(=O)(=O)N([C@H](C)CO)C[C@@H]1C
  FGF22 binding = i
> COc1ccc(NC(=O)Nc2ccc3c(c2)C(=O)N([C@H](C)CO)C[C@@H](C)[C@H](CN(C)S(C)(=O)=O)OCCCC[C@@H](C)O3)cc1
  FGF22 binding = i
> CC(=O)N1[C@@H](CO)[C@@H]2c3ccccc3N(C(=O)c3ccc(F)cc3)C[C@@H]21
  FGF22 binding = +
> C/C=C/c1ccccc1[C@@H]1[C@@H](CO)N(C(=O)Cc2ccccn2)[C@H]1C#N
  FGF22 binding = i
> CCC(=O)N1[C@@H](CO)[C@@H](c2ccccc2)C12CN(Cc1cccnc1)C2
  FGF22 binding = i
> C[C@H](CO)N1C[C@H](C)[C@H](CN(C)Cc2ccc3c(c2)OCCN3C)OCc2cn(nn2)CCCC1=O
  FGF22 binding = i
> C[C@@H]1CCCCO[C@@H](CN(C)S(=O)(=O)c2ccc(F)cc2)[C@@H](C)CN([C@H](C)CO)C(=O)c2cc(NC(=O)CCC(F)(F)F)ccc2O1
  FGF22 binding = i
> COc1ccc2c3c([nH]c2c1)[C@@H](CO)N(Cc1ccccc1OC)CC31CN(C)C1
  FGF22 binding = i
> COc1ccc(S(=O)(=O)N(C)C[C@@H]2Oc3c(NC(=O)Nc4cccc5ccccc45)cccc3C(=O)N([C@@H](C)CO)C[C@@H]2C)cc1
  FGF22 binding = i
> C[C@H](CO)N1C[C@H](C)[C@@H](CN(C)Cc2ccc(Cl)c(Cl)c2)Oc2ccc(NC(=O)CCC(F)(F)F)cc2CC1=O
  FGF22 binding = i
> C[C@@H]1CN([C@H](C)CO)C(=O)Cc2cc(NC(=O)Nc3ccc(F)cc3)ccc2O[C@@H]1CN(C)S(=O)(=O)c1ccc(F)cc1
  FGF22 binding = i
> Cc1ccc(S(=O)(=O)N(C)C[C@@H]2Oc3ccc(NS(=O)(=O)c4ccc(Cl)cc4)cc3C(=O)N([C@H](C)CO)C[C@@H]2C)cc1
  FGF22 binding = i

> COc1ccc2c3c(n(C)c2c1)[C@H](CO)N(C(=O)Cc1ccccn1)CC31CCN(CC2CC2)CC1
  FGF22 binding = i
> C[C@H]1CCCCO[C@H](CN(C)Cc2ccc(C(=O)O)cc2)[C@@H](C)CN([C@@H](C)CO)C(=O)c2cc(NS(=O)(=O)c3ccc(Cl)cc3)ccc2O1
  FGF22 binding = i
> C[C@@H]1CN([C@@H](C)CO)C(=O)c2cccc(NC(=O)C3CC3)c2O[C@H]1CN(C)Cc1ccc2c(c1)OCO2
  FGF22 binding = i
> C[C@@H](NC(=O)C[C@@H]1C=C[C@H](NC(=O)CN2CCOCC2)[C@H](CO)O1)c1ccccc1
  FGF22 binding = i
> O=C(CN1CCOCC1)NCC[C@H]1CC[C@H](NC(=O)Cc2ccccn2)[C@@H](CO)O1
  FGF22 binding = i
> COc1ccc(S(=O)(=O)N(C)C[C@@H]2OCCCC[C@@H](C)Oc3ccc(N(C)C)cc3C(=O)N([C@@H](C)CO)C[C@H]2C)cc1
  FGF22 binding = i
> CCC(=O)N[C@@H]1CC[C@@H](CCNS(=O)(=O)c2ccc(Cl)cc2)O[C@@H]1CO
  FGF22 binding = i
> COc1ccccc1-c1ccc2c(c1)O[C@@H](CN(C)C(C)=O)[C@@H](C)CN([C@@H](C)CO)S2(=O)=O
  FGF22 binding = i
> C[C@@H]1CN([C@@H](C)CO)S(=O)(=O)c2ccc(-c3cncnc3)cc2O[C@H]1CN(C)Cc1cccnc1
  FGF22 binding = i
> Cc1cccc(S(=O)(=O)N(C)C[C@@H]2OCc3ccccc3-c3ccccc3C(=O)N([C@@H](C)CO)C[C@@H]2C)c1
  FGF22 binding = i
> C[C@H](CO)N1C[C@H](C)[C@H](CN(C)C(=O)Nc2ccc(C(F)(F)F)cc2)Oc2c(cccc2N(C)C)C1=O
  FGF22 binding = i
> CC(=O)N1[C@H](C(=O)Nc2nccs2)[C@@H](CO)[C@@H]2Cn3c(ccc(/C=C/c4ccccc4)c3=O)[C@@H]21
  FGF22 binding = i
> C[C@@H]1CCCCO[C@H](CN(C)C(=O)NC2CCCCC2)[C@@H](C)CN([C@H](C)CO)C(=O)c2cc(NC(=O)Cc3ccccc3)ccc2O1
  FGF22 binding = i
> CNC(=O)C[C@@H]1CC[C@@H]2[C@H](COc3ccc(NC(=O)C(C)C)cc3C(=O)N2C)O1
  FGF22 binding = i
> COc1ccc(S(=O)(=O)Nc2ccc3c(c2)C(=O)N([C@@H](C)CO)C[C@@H](C)[C@@H](CN(C)Cc2ccc4c(c2)OCO4)OCCCC[C@@H](C)O3)cc1
  FGF22 binding = i
> COC(=O)C[C@H]1C[C@@H]2c3cc(NS(=O)(=O)c4ccc(F)cc4)ccc3O[C@@H]2[C@@H](CO)O1
  FGF22 binding = i
> C[C@H](CO)N1C[C@H](C)[C@H](CN(C)Cc2ccncc2)Oc2ncc(-c3ccccc3)cc2C1=O
  FGF22 binding = i
> C[C@H]1CN([C@@H](C)CO)C(=O)c2ccccc2-c2ccccc2CO[C@@H]1CN(C)S(=O)(=O)c1ccc(C(F)(F)F)cc1
  FGF22 binding = i
> O=C(CN1CCOCC1)N[C@@H]1CC[C@H](CCNC(=O)Nc2cc(F)ccc2F)O[C@@H]1CO
  FGF22 binding = i
> C[C@@H]1CN([C@H](C)CO)S(=O)(=O)c2ccc(Br)cc2O[C@@H]1CN(C)CC1CCOCC1
  FGF22 binding = i
> COc1ccccc1C(=O)N1O[C@]23C=C[C@]14C[C@@H](O)CC[C@]4(C)C2CC[C@]1(C)[C@@H]([C@H](C)/C=C/[C@H](C)C(C)C)CC[C@H]13 (stereo partly drawn)
  FGF22 binding = i
> C[C@H]1CN([C@@H](C)CO)C(=O)c2cccc(NS(=O)(=O)c3ccc(Cl)cc3)c2O[C@H]1CN(C)Cc1ccc(C(F)(F)F)cc1
  FGF22 binding = i
> C[C@@H]1CN([C@H](C)CO)C(=O)c2ccccc2-c2ccccc2CO[C@@H]1CN(C)C(=O)Nc1ccc(F)cc1
  FGF22 binding = i
> CC(C)C#Cc1ccc([C@H]2[C@@H](C#N)N(C(=O)C3CCOCC3)[C@H]2CO)cc1
  FGF22 binding = i
> Cc1ccc(S(=O)(=O)Nc2cccc3c2O[C@H](CN(C)S(=O)(=O)c2ccc(Cl)cc2)[C@H](C)CN([C@@H](C)CO)C3=O)cc1
  FGF22 binding = i

> O=C(Nc1ccc2c(c1)[C@H]1C[C@H](CC(=O)N3CCc4ccccc4C3)O[C@@H](CO)[C@H]1O2)NC1CCCC1
  FGF22 binding = i
> CO[C@H]1CN(C)C(=O)c2ccc(NC(=O)C3CCCC3)cc2OC[C@H](C)N(C(=O)CC2CC2)C[C@H]1C
  FGF22 binding = i
> C[C@@H]1CCCCO[C@@H](CN(C)C(=O)Nc2ccc3c(c2)OCO3)[C@H](C)CN([C@H](C)CO)C(=O)c2cc(NS(=O)(=O)c3ccc(Cl)cc3)ccc2O1
  FGF22 binding = i
> O=C(C1CCCC1)N1[C@@H](CO)[C@@H](c2ccccc2)C12CN(Cc1ccc(F)cc1)C2
  FGF22 binding = i
> O=C(C[C@H]1C=C[C@@H](NC(=O)C2CC2)[C@H](CO)O1)Nc1ccccc1
  FGF22 binding = i
> C[C@@H](O)C#Cc1ccc([C@@H]2[C@H]3CN(C(=O)c4cccc(F)c4)CCCCN3[C@H]2CO)cc1
  FGF22 binding = i
> CCC(=O)N1C[C@@H](C)[C@@H](OC)CN(C)C(=O)c2ccc(NC(=O)Nc3ccccc3)cc2OC[C@@H]1C
  FGF22 binding = i

# Some of the entries so far, in CSV form.
compound,FGF22 binding
O=C(C1CCCC1)N1[C@@H](CO)[C@@H](c2ccccc2)C12CN(Cc1ccc(F)cc1)C2,i
O=C(Nc1ccc2c(c1)[C@H]1C[C@H](CC(=O)N3CCc4ccccc4C3)O[C@@H](CO)[C@H]1O2)NC1CCCC1,i
C[C@@H](O)C#Cc1ccc([C@@H]2[C@H]3CN(C(=O)c4cccc(F)c4)CCCCN3[C@H]2CO)cc1,i

# Assay outcomes from PubChem.
